Source: PubChem (ICCB-Longwood Screening Facility, Harvard Medical School)
Mtb MbtI inh – blocks the Mycobacterium tuberculosis siderophore enzyme MbtI; 0.89% of 100,000 active; AID 493033; P9WFX0; inhibition, %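 (about 17 µg/mL by stock and volumes)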; purified MbtI enzyme, fluorescence intensity read-out;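 active = above 50% in both replicates, above 80% if mildly self-fluorescent; inactive = the rest, strongly fluorescent compounds included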;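 also: 0% = mean of negative and 100% = mean of positive controls; one replicate is shown; some compounds called inactive have numbers as strong as hits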
Polio RdRp inh – inhibitors of poliovirus RNA polymerase binding and polymerization; P03300; poliovirus polymerase elongation, fluorescence polarization; active compounds read low; % elongation, % (compound at 16.7 µg/mL); 0.66% of 150,000 active; AID 588519; in the data active = % elongation below about 90%; also: some results filed as inactive read as strong as hits
Target sequence (P03300 1749-2209 limits assumed): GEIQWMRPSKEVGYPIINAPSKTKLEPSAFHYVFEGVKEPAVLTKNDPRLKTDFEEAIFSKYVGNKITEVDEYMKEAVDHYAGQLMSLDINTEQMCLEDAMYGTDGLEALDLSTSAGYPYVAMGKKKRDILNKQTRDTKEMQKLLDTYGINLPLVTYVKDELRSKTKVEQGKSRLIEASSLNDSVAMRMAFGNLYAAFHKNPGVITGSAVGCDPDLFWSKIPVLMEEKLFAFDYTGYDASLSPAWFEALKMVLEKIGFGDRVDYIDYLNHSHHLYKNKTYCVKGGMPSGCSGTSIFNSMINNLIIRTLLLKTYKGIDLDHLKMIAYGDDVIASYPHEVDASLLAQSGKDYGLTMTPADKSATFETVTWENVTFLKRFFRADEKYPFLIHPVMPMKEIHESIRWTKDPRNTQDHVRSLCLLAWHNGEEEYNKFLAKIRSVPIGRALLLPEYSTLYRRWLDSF
Mtb MenB inh – blocks the Mycobacterium tuberculosis MenB enzyme | P9WNP5 | MenB enzyme assay, absorbance read-out; some hits fall short of the stated cut | inhibition, %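 (about 12 µg/mL by stock and volumes)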 | 0.43% of 100,000 active;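 active = mean of two replicates above 30%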;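 also: 0% = no compound and 100% = wells with inactive enzyme; the first replicate is given; strong numbers were not always called active; inactives centre near -10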
Target sequence (P9WNP5 whole entry, looked up): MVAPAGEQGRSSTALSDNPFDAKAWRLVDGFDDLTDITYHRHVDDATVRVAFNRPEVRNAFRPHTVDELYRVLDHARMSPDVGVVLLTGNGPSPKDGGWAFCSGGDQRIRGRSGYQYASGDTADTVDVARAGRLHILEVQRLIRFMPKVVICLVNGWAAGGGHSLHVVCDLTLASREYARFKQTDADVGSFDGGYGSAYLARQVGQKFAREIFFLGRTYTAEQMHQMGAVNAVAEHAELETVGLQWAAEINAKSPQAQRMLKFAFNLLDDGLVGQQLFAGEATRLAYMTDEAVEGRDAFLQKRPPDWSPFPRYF
Polio RdRp inh intensity – further read-out of Polio RdRp inh, marked with its call; % elongation; measured here: total intensity read-out; formula for this scale not given here;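 total fluorescence in place of polarization; lower means less elongation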
The depositor's hits bear a star; i = inactive; x = not tested or not shown.

1	O=C1c2cccc3c(S(=O)(=O)N4CCOCC4)ccc(c23)N1C(=O)C1CCCCC1
2	CCN1CCc2nc(NC(=O)CCc3ccccc3)sc2C1
3	Cc1ccc(CNS(=O)(=O)c2ccc(C(C)(C)C)cc2)n1C
4	CCOc1cccc(C(=O)Nc2ccccc2C(=O)OC)c1
5	CC(C)COc1ccccc1O
6	CC(=O)OC(C)(C)C1Cc2cc3ccc(=O)oc3cc2O1 (stereo not drawn)
7	Cc1[nH]c(=O)[nH]c(=O)c1S(=O)(=O)N1CCCC(C(=O)NCc2ccc3c(c2)OCO3)C1 (stereo not drawn)
8	CC1CCC2(CC1)C(=O)N(S(=O)(=O)c1cccc(C(F)(F)F)c1)C(=O)N2C (stereo not drawn)
entry no.	1	2	3	4	5	6	7	8
Mtb MbtI inh	26	-6	4	6	x	116	4	-5
Polio RdRp inh intensity	x	110	101	99	107	101	96	x
Polio RdRp inh	x	101	100	100	108	99	102	x
Mtb MenB inh	-21	7	-25	-1	5	12	-18	-2

9	COc1cc(/C=C2/N=C(c3ccco3)OC2=O)ccc1OC(C)=O
10	O=C(CSc1ncnc2sccc12)Nc1ccccc1
11	COC(CNC(=O)C1CCC(CNS(=O)(=O)c2ccc(C)cc2)CC1)OC (stereo not drawn)
12	CC(C(=O)N1CCc2ccccc2C1)n1ncc2ccccc21 (stereo not drawn)
13	O=C(Cn1ncc2c(Cl)cccc21)NCCCN1CCCC1
14	O=C(Cc1cccs1)Nc1scc(-c2ccccc2)c1C(=O)NCc1ccco1
15	O=C(NCc1ccco1)C1CCCN1S(=O)(=O)c1ccc(-c2ccc(=O)[nH]n2)s1 (stereo not drawn)
16	Cn1nnc2sc(-c3ccccc3)cc2c1=O
entry no.	9	10	11	12	13	14	15	16
Mtb MbtI inh	-28	4	-12	1	9	20	42	12
Polio RdRp inh intensity	103	114	103	102	103	101	104	109
Polio RdRp inh	100	110	100	101	102	101	103	103
Mtb MenB inh	-25	-1	-15	-6	11	-40	-22	3

17	O=C1CCC(=O)N1CN(C(=O)C(F)(F)F)c1ccccc1
18	CC(c1nnc(SCc2nnc(-c3ccco3)o2)n1-c1ccc(F)cc1)N1CCCCC1 (stereo not drawn)
19	c1coc(C2Nc3ccccc3-c3nc4ccccc4n32)c1 (stereo not drawn)
20	Cc1cc(C)c(OCC(=O)O)c(Cl)c1
21	CCN(CC)C(=O)c1sc2nc(-c3ccncc3)[nH]c(=O)c2c1C
22	CNC(=S)N1c2ccccc2CC1C (stereo not drawn)
23	Cn1nnnc1SCC(=O)NCc1cccc(C(=O)O)c1
24	c1ccc2c(c1)oc1c(NCc3ccc4c(c3)OCO4)ncnc12
entry no.	17	18	19	20	21	22	23	24
Mtb MbtI inh	7	27	i	-15	-4	18	1	-20
Polio RdRp inh intensity	102	106	107	101	107	103	105	99
Polio RdRp inh	104	105	101	103	102	102	101	106
Mtb MenB inh	-10	3	-24	-53	-23	5	5	-6

25	COc1ccc(/C(O)=C(\C#N)c2nc3ccccc3[nH]2)cc1
26	Cc1ccc(C=Nc2cccc3ccccc23)cc1
27	CN1C(=O)C(Cc2cccs2)C(=O)N(C)C1=O
28	CCOc1ccccc1C1SCC(=O)N1CCN1C(=O)S/C(=C\c2ccc(F)cc2)C1=O (stereo not drawn)
29	CCc1ccc(OCC(=O)OC2CCS(=O)(=O)C2)cc1 (stereo not drawn)
30	COc1ccc(CSc2nnc3c4c5c(sc4nc(SC)n23)COC(C)(C)C5)cc1
31	CC(=O)Nc1ccc(S(=O)(=O)C(F)F)cc1
32	COC(=O)c1cc2c(cc1Cl)N1CCCCCC1=NS2(=O)=O
entry no.	25	26	27	28	29	30	31	32
Mtb MbtI inh	-1	111	1	5	3	114	-8	10
Polio RdRp inh intensity	109	97	102	x	104	100	110	103
Polio RdRp inh	103	98	102	x	102	103	107	104
Mtb MenB inh	-4	-13	-16	-10	-13	-4	-3	13

33	c1ccc(CNC2=NCCCS2)cc1
34	CCc1ccc2[nH]c(=O)c(C(c3nnnn3C3CCCC3)N(Cc3ccccc3)Cc3ccco3)cc2c1 (stereo not drawn)
35	CCCCCn1nc(C(=O)O)c2ccccc2c1=O
36	COc1ccc(Cn2c(C)ccc2C)cc1
37	CC(=O)Nc1ccc(NC(=O)CN(CCc2ccccc2)S(C)(=O)=O)cc1
38	CC(C)COc1ccc(/C=C2/SC(=Nc3ccccc3)N(N(C)C)C2=O)cc1
39	CCc1nn(CC(=O)N2CC(C)CC(C)C2)c(=O)c2cc3sccc3n12 (stereo not drawn)
40	NC(N)=NN=C1CCCCC1
entry no.	33	34	35	36	37	38	39	40
Mtb MbtI inh	-6	0	-3	x	-1	x	1	7
Polio RdRp inh intensity	107	100	95	112	99	104	102	97
Polio RdRp inh	103	102	97	107	101	99	104	101
Mtb MenB inh	-5	-10	-31	-18	-2	-11	-1	13

Record cards, as listed above. Order of screens: Mtb MbtI inh	Polio RdRp inh intensity	Polio RdRp inh	Mtb MenB inh
`COc1ccc(CSc2nnc3c4c5c(sc4nc(SC)n23)COC(C)(C)C5)cc1` is listed as 114	100	103	-4
`O=C(CSc1ncnc2sccc12)Nc1ccccc1` is listed as 4	114	110	-1

Remaining list, next part.
41	COc1cc(CCNc2ccc3nnc(-c4ccccc4)n3n2)cc(OC)c1OC
42	COC(=O)c1ccc(S(=O)(=O)N2CCc3ccccc32)n1C
43	O=C(COc1ccc2c(c1)C(=O)CC1(CCCCC1)O2)NCc1cccnc1
44	O=c1[nH]nc2n1CCCC2
45	CC1CCCN(C(=O)C23CCC(C)(C(=O)C2)C3(C)C)C1 (stereo not drawn)
46	O=C1NC(=S)N/C1=C\c1ccco1
47	CC(C)(C)C(=O)COC(=O)C1CCN(S(=O)(=O)c2cccs2)CC1
48	O=C(CCn1c(=O)c2ccccc2n(CC(=O)NCCC2=CCCCC2)c1=O)NCc1ccc2c(c1)OCO2
entry no.	41	42	43	44	45	46	47	48
Mtb MbtI inh	11	-16	86	-6	x	19	-9	-2
Polio RdRp inh intensity	105	105	100	100	110	104	101	102
Polio RdRp inh	106	101	102	103	103	101	105	103
Mtb MenB inh	-64	-8	-12	-17	2	-35	-30	-2

49	O=C(c1cnn(-c2ccccc2)c1)c1ccccc1O
50	CCOc1cc2c(cc1C(=O)O)OC(C)C2 (stereo not drawn)
51	CC1(C)CC(=O)C2=C(C1)NC(=O)C(C#N)C2c1ccccc1 (stereo not drawn)
52	CCOc1ccc(C(C)(C)C(=O)NN2C(=O)/C(=C/c3ccccn3)N=C2c2ccccc2)cc1
53	CCN1C(=O)c2c(C)nc3ccccc3c2C1=O
54	C=C1C(=O)OC2C[C@@H](C)[C@@H]3C=CC(=O)[C@@]3(C)[C@@H](O)C12 (stereo partly drawn)
55	O=C(Nc1nc(-c2cccnc2)cs1)C1CCCC1
56	CC1CCc2sc(C(=O)NCCCn3ccnc3)cc2C1 (stereo not drawn)
entry no.	49	50	51	52	53	54	55	56
Mtb MbtI inh	x	-106	6	x	-3	x	28	-2
Polio RdRp inh intensity	105	101	102	241	102	105	104	95
Polio RdRp inh	99	101	99	43	99	98	107	101
Mtb MenB inh	-12	-8	-16	-13	5	-4	3	-43

57	C(=Nc1ccc(-c2nnc3n2CCCCC3)cc1)c1ccsc1
58	COC(=O)C(C)n1cnc2sc3c(c2c1=O)CCCC3 (stereo not drawn)
59	O=C1c2ccccc2S(=O)(=O)N1CC(O)Cn1ccc2ccccc21 (stereo not drawn)
60	O=C(CSC1=NS(=O)(=O)c2ccccc2N1)c1ccccc1
61	COc1ccc2c(C)nc(/N=C(\N)NC(C)=O)nc2c1
62	CC(C)=NNc1c(Cl)cc(Cl)cc1Cl
63	Cc1ccc(S(=O)(=O)NC(=O)Nc2scc(C)c2C(=O)c2ccccc2)cc1
64	CCCN(CCC)S(=O)(=O)c1ccc(C)cc1
entry no.	57	58	59	60	61	62	63	64
Mtb MbtI inh	-3	5	-11	7	x	21	-5	0
Polio RdRp inh intensity	97	102	102	103	98	98	116	102
Polio RdRp inh	100	102	101	100	91	103	101	101
Mtb MenB inh	x	11	-24	12	-17	7	-9	18

65	COc1ccccc1NC(=O)C1C2C=CC3(CN(Cc4cccnc4)C(=O)C13)O2 (stereo not drawn)
66	O=c1cnc(Nc2ccccc2Cl)c2ccccc2n1
67	CCc1nnc2c(N(C)c3cccc(C)c3)nc3ccccc3n12
68	CC1=NN(C(=O)c2cccs2)C(O)(C(F)(F)F)C1 (stereo not drawn)
69	COc1ccc2c(c1OC)C(=O)NC(C)=C(C(=O)OC(C)(C)C)C2O (stereo not drawn)
70	COc1ccc(I)c(OC)c1
71	CC1=C/C(=N\NS(=O)(=O)c2ccc(C)cc2)CC1
72	CCCOc1ccc(C2c3c(oc4ccc(Cl)cc4c3=O)C(=O)N2CCN(CC)CC)cc1OC (stereo not drawn)
entry no.	65	66	67	68	69	70	71	72
Mtb MbtI inh	-5	-1	5	0	15	2	9	-1
Polio RdRp inh intensity	104	95	102	105	102	101	106	107
Polio RdRp inh	98	97	101	102	100	100	98	100
Mtb MenB inh	-3	-33	-4	4	-6	-13	-10	7

73	O=C1C2C3C=CC(C3)C2C(=O)N1c1nc2ccccc2s1 (stereo not drawn)
74	Cc1nc2ccn(Cc3cccnc3)c(=O)c2cc1C(=O)NCCC(C)C
75	CC1CCN(C(=O)Cn2cc(SCC(=O)N3CCc4ccccc43)c3ccccc32)CC1
76	CC(C)N(C(=O)CSc1nc2ccc(Cl)cc2[nH]1)C(C)C
77	Fc1ccc(NC(=S)NCCCN2CCCCCC2)cc1Cl
78	COC(=O)CNc1nc(Cl)nc(N2CCC(C)CC2)n1
79	c1cnc(Sc2ccc3ccccc3c2)nc1
80	COc1ccc2oc(C(=O)OC(C)C(=O)N3C(C)CCCC3C)c(C)c2c1 (stereo not drawn)
entry no.	73	74	75	76	77	78	79	80
Mtb MbtI inh	-2	126	-2	-2	-8	x	1	-23
Polio RdRp inh intensity	102	105	102	117	104	113	105	105
Polio RdRp inh	102	100	100	112	101	109	102	103
Mtb MenB inh	-24	-10	-10	1	2	-11	10	-39

An excerpt of these results, with bars between the fields.
No. | compound | Mtb MbtI inh | Polio RdRp inh intensity | Polio RdRp inh | Mtb MenB inh
80 | COc1ccc2oc(C(=O)OC(C)C(=O)N3C(C)CCCC3C)c(C)c2c1 (stereo not drawn) | -23 | 105 | 103 | -39
73 | O=C1C2C3C=CC(C3)C2C(=O)N1c1nc2ccccc2s1 (stereo not drawn) | -2 | 102 | 102 | -24
78 | COC(=O)CNc1nc(Cl)nc(N2CCC(C)CC2)n1 | x | 113 | 109 | -11
79 | c1cnc(Sc2ccc3ccccc3c2)nc1 | 1 | 105 | 102 | 10
74 | Cc1nc2ccn(Cc3cccnc3)c(=O)c2cc1C(=O)NCCC(C)C | 126 | 105 | 100 | -10

Next compounds:
81	CCCOC(=O)c1ccc(NC=O)cc1
82	COc1ccc2[nH]cc(CCNC(=O)Cn3cnc4ccccc4c3=O)c2c1
83	Cc1ccc(CNC(=O)C2CC3CCCN3C23C(=O)N(C)c2ccccc23)cc1 (stereo not drawn)
84	O=C(O)C1CNC(c2ccccc2)S1 (stereo not drawn)
85	CCn1cc(CN(Cc2ccccc2)C(=S)Nc2ccc(Cl)cc2OC)c2ccccc21
86	O=C(COC(=O)c1ccc(Br)o1)Nc1cc(C(F)(F)F)ccc1Cl
87	COc1ccc(-c2nc(SCC(=O)N3CCCc4ccccc43)[nH]c(=O)c2C#N)cc1
88	O=C1NC(c2ccc(Br)cc2)Oc2ccccc21 (stereo not drawn)
89	O=C(CCCc1nnc2n3nc(-c4ccccc4)nc3c3ccccc3n12)NCc1ccco1
90	Cc1nc2ccc(NC(=O)NCCCO)cc2s1
91	CCc1ccc(NC(=O)CCCn2c(=O)c3cccn3c3cccnc32)cc1
entry no.	81	82	83	84	85	86	87	88	89	90	91
Mtb MbtI inh	0	-6	21	x	-8	-8	-2	-14	25	21	-8
Polio RdRp inh intensity	100	102	103	110	101	100	109	104	103	104	103
Polio RdRp inh	102	99	102	102	101	99	102	103	100	103	101
Mtb MenB inh	-2	8	-9	-7	-11	x	-5	-22	2	-39	3
